NPYLR7 agonist = mosquito NPYLR7 agonism. HEK293T NPYLR7/Galpha15, GCaMP6s calcium fluorescence. activation, % at 10 µM. 270,000 tested, 0.15% active. AID 1259423; in the data active = activation above about 40%;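 also: 0% = vehicle and 100% = reference agonist at the receptor; some compounds past the cut are filed as inactive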
NPYLR7 agonist max-min = recorded beside NPYLR7 agonist, whose call it bears; activation, %; measured here: Max-Min RFU normalised activation; some inactives read as strong as hits;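 span of the calcium signal over five minutes; 0% = vehicle and 100% = native peptide agonist; compound fluorescence can raise it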
Active calls of the source: *; & = joins results of further samples. Some of the compounds tested; the hit share may differ from the screen's.

SMILES	NPYLR7 agonist	NPYLR7 agonist max-min
CC(C)CCN(CC(=O)N(Cc1cccn1Cc1ccccc1)C1CCCCC1)C(=O)N(C)C	-6	-3
CCc1ccccc1NS(=O)(=O)/C=C/c1ccc(Cl)cc1	5	7
CCOc1ccc(OCCCOc2cc(C)ccc2Cl)cc1	-3	1
CCN(CC)C(=O)CCn1cnc2scc(-c3ccc(C)cc3)c2c1=O	0	37
O=C(c1ccccc1F)N1CCC2(CC1)SCCN2C(=O)C1CCCC1	-5	-2
COc1cccc(-c2n[nH]c3ccnc(-c4ccccc4OC)c23)c1	1	1
Cc1ccc(S(=O)(=O)NCC(c2cccn2C)N(C)C)c(C)c1 (stereo unspecified)	19	16
CN(CC1Cc2ccccc2O1)C(=O)CCC1(Cc2ccc(Cl)cc2)CCC(=O)N1 (stereo unspecified)	-2	-7
CCOC(=O)c1ccccc1NC(=O)Cn1cnc2c(nnn2-c2ccc(F)cc2)c1=O	10	14
NS(=O)(=O)CCNC(=O)c1cc(-c2ccccc2)ccc1Cl	3	-1
O=C(Cc1ccc(Cl)cc1)Oc1ccc(Cl)cc1	3	7
COc1cc(OC)c(C(=O)N2CCCN(C)C3(CCN(C)CC3)C2)cc1OC	8	4
CN(C)c1ccc(CC(=O)N[C@@H]2Cc3ccccc3CN(CC(=O)NCc3ccco3)C2=O)cc1	-1	14
CC(Cn1cncn1)NCCN1CCc2ccccc2C1 (stereo unspecified)	2	20
CNC(=O)C1=C(C)C(C)(C)OC1=O	-11	-14
NS(=O)(=O)c1ccc(NN=Cc2c(F)c(F)c(F)c(F)c2F)c([N+](=O)[O-])c1	5	-4
CC(C)NC(=O)C1(C)CCCCN1C/C=C/c1ccccc1 (stereo unspecified)	4	2
COC(=O)CC1C(=O)NCCN1C(=O)c1cc2n(n1)CCN(C(C)C)C2 (stereo unspecified)	15	11
CC(=Nc1ccccn1)c1c(O)c2ccccc2oc1=O	2	3
COc1cc(N2CCC3(CC2)CNC(=O)C3)ncn1	6	5
CCn1c(CCN)nnc1Sc1ccccc1S(=O)(=O)C(F)(F)F	6	4
Cc1cc(C(=O)N(CCCN2CCOCC2)c2nc3c(F)cc(F)cc3s2)nn1C	0	-2
COCCN1CCN(Cc2nc(CCc3ccccc3)no2)CC1	5	1
COc1ccccc1-c1cccc(-c2cccc(NC(=O)COC(C)=O)c2)n1	-8	-11
Cc1ccc2nc3sc(NCc4ccco4)nn3c(=O)c2c1	0	0
CCN1C(=S)SC(=O)C1=C1C=C(C)N(CCOC)C(C)=C1	10	6
COc1ccc(CN2CCCn3cccc3C2c2cc(F)ccc2F)cc1O (stereo unspecified)	20	21
COc1ccccc1-n1cc(C(=O)NCc2snnc2C)cn1	7	5
Cc1cccc(CO[C@]2(C(=O)NN3CCOCC3)CC(OCc3ccc(C#N)cc3)[C@@H]3OC(C)(C)O[C@@H]3C2)c1 (stereo partly specified)	1	1
Cc1ccc(-n2c3c(c(O)c(-c4ccccc4)c2=O)C(=O)CC(C)(C)C3)cc1	3	6
CC(=O)Oc1ccc2c(=O)c(Oc3ccccc3[N+](=O)[O-])coc2c1	-8	-15
COc1cccc(-c2c(NC(=O)C(C)C)n(C)c3ccccc3c2=O)c1	6	0
CC(=O)Nc1ccc(CC(=O)N(C)C2CCC(CO)CC2)cc1 (stereo unspecified)	6	2
COc1ccccc1C(=O)N1CCN(C(C(=O)Nc2cccc(Cl)c2)C2CCCC2)CC1 (stereo unspecified)	-3	-1
COc1ccc(OC)c(-c2cccc(-c3ccc(NC(=O)c4cncc(Br)c4)cc3)n2)c1	1	0
CCc1nnc(NC(=O)c2ccc(C)c(-n3cccc3)c2)s1	8	-1
CCOc1ccccc1N1CCN(C(=O)c2ccc(Br)cc2)C(C)C1=O (stereo unspecified)	-6	3
O=C(NCCC(=O)N1CCOC(COc2cccc(C(F)(F)F)c2)C1)OCc1ccccc1 (stereo unspecified)	23	22
CCCn1c(SCC(=O)NCCN2C(=O)CSC2=O)n[nH]c1=O	1	2
Cc1nc2nc(-c3ccc(O)cc3)cc(C(=O)O)c2[nH]1	-1	-2
COc1ccc(CC(=O)N2CCOC(COCc3ccc(F)cc3Cl)C2)c(OC)c1OC (stereo unspecified)	2	-2
O=S(=O)(NC1CCCCC1N1CCOCC1)c1ccc(Cl)cc1 (stereo unspecified)	5	2
FC(F)(F)Oc1ccc(-c2nccnc2NCc2ccc(C(F)(F)F)cc2)cc1	-5	-8
Cc1noc(C)c1N(C)C(=O)C1COc2ccccc21 (stereo unspecified)	7	3
CN(Cc1cnc2c(-c3ccccc3)cnn2c1)Cc1n[nH]c2c1CCC2	19	7

Among those listed so far, these contain fluorine:
SMILES	NPYLR7 agonist	NPYLR7 agonist max-min
O=C(c1ccccc1F)N1CCC2(CC1)SCCN2C(=O)C1CCCC1	-5	-2
CCOC(=O)c1ccccc1NC(=O)Cn1cnc2c(nnn2-c2ccc(F)cc2)c1=O	10	14
NS(=O)(=O)c1ccc(NN=Cc2c(F)c(F)c(F)c(F)c2F)c([N+](=O)[O-])c1	5	-4
CCn1c(CCN)nnc1Sc1ccccc1S(=O)(=O)C(F)(F)F	6	4
Cc1cc(C(=O)N(CCCN2CCOCC2)c2nc3c(F)cc(F)cc3s2)nn1C	0	-2
COc1ccc(CN2CCCn3cccc3C2c2cc(F)ccc2F)cc1O (stereo unspecified)	20	21
O=C(NCCC(=O)N1CCOC(COc2cccc(C(F)(F)F)c2)C1)OCc1ccccc1 (stereo unspecified)	23	22
COc1ccc(CC(=O)N2CCOC(COCc3ccc(F)cc3Cl)C2)c(OC)c1OC (stereo unspecified)	2	-2
FC(F)(F)Oc1ccc(-c2nccnc2NCc2ccc(C(F)(F)F)cc2)cc1	-5	-8

More structures follow:
SMILES	NPYLR7 agonist	NPYLR7 agonist max-min
Cn1c(=O)n(CCN2CCCCC2)c(=O)c2c1nc1oc(C(C)(C)C)cn12	2	5
O=C(Cn1nnc(-c2ccc(Cl)cc2)n1)Nc1ccccc1I	-2	24
Cc1cc(C(=O)CN2CCOC(C)C2)c(C)n1CCc1ccccc1 (stereo unspecified)	-2	4
COc1ccccc1N1CCN(C(=O)c2ccccc2NC(C)=O)CC1	-9	-11
CN(Cc1ccccc1)C(=O)c1cnn(-c2ccccc2)n1	7	4
CN1CCOC(CNCC(=O)N(C)Cc2c(F)cccc2Cl)C1 (stereo unspecified)	5	0
COc1nc2ccccc2cc1-c1cccc(-n2cnnc2)c1	6	4
COCc1cc(C)nc(N/N=C\c2cc(Br)c(OC)c(OC)c2)c1C#N	13	12
CCOC(=O)c1nc2cc(Cl)c(Cl)cc2nc1N1CCCN(C(=O)C(=O)OC)CC1	2	1
Cc1c(CN2CCC3(CC2)C(=O)N(C(C)C)C(=O)N3CCC(C)C)cnn1C	23	9
CCn1nc(C)c(-c2cc(C(=O)O)[nH]n2)c1C	-1	-3
CCc1ncc(C(=O)N2CCc3nnc(CCc4ccccc4)n3CC2)cn1	6	-2
CCCc1c(C(=O)Nc2ccncc2)[nH]c(C)c1C(=O)OC	-2	-8
CC(C)Cc1nnc(N)s1	1	0
Cc1ccc(CC2(NC(=O)c3ccc(S(N)(=O)=O)cc3)CC2)cc1	0	-3
CC1(C)CC(=O)C(C(c2ccco2)C2C(=O)CC(C)(C)CC2=O)C(=O)C1	15&14&0	9&5&-1
c1ccc(C(CC2CN(CCc3cn[nH]c3)CCO2)c2ccccc2)cc1 (stereo unspecified)	10	-8
Cc1ccc(-n2ncc3c(-n4nc(C)cc4NC(=O)Cc4ccc(F)cc4)ncnc32)c(C)c1	5	5
Cn1c(=O)c2cc(C(=O)Nc3ccc(Cl)cc3)n(Cc3ccccc3)c2n(C)c1=O	1	-2
CC(=O)C(C)Sc1ccc(Cl)cc1[N+](=O)[O-] (stereo unspecified)	1	-1
Cc1ccc(CNC(=O)C2CCN(C(=O)C3CCCC3)CC2)cc1F	-1	-3
COc1ccc(N2CCN(C(=O)CSc3nc(Cl)cc(N4CCN(c5ccccc5Cl)CC4)n3)CC2)cc1	10	9
COc1ccc(OC)c(C2C(C#N)=C(C)NC3=C2C(=O)CCC3)c1 (stereo unspecified)	7	5
N#CC1(NC(=O)CNc2ccc(Cl)cc2Cl)CCCCCC1	10	6
Cc1nc(C2CC2)ncc1C(=O)NC1CCC(n2cnnc2)CC1 (stereo unspecified)	-3	-3
Cc1c(-c2ccccc2F)[nH]c2ccc(CNC(=O)CCn3cncn3)cc12	15	6
COc1ccc(CN2CCn3nc(C(=O)NCc4ccc(F)cc4)cc3C2=O)cc1	18	10
COc1ccc(-c2c(-c3ccc(OCCN4CCCCC4)cc3O)n[nH]c2C)cc1OC	2	-1
CCOC(=O)C1=C(C)NC(=O)NC1c1ccc(F)cc1F (stereo unspecified)	-2	-9
CC(C)c1nnsc1CNC(=O)c1cccc(C#CC(C)(C)O)c1	4	-4
CCn1c(-c2ccc(OC)cc2)c[nH]c1=S	-9	-12
Cc1ccc(-n2ncc3c(=O)n(NC(=O)COc4ccc(Cl)cc4)cnc32)cc1	4	-1
CC(C)c1csc(CN2CCCC(CNC(=O)c3cccc4ccccc34)C2)n1 (stereo unspecified)	10&10	5&1
O=C(Nc1cccc(OCC(=O)N2CCCC2)c1)c1ccccc1	-1	0
FC(F)(F)Oc1ccc(-c2nccnc2NCC2CC2)cc1	12	6
CC1(Cc2ccc(C(=O)c3ccccc3)cc2)C(=O)Nc2cc(C(F)(F)F)ccc21 (stereo unspecified)	4	1
CN(C)CCNC(=O)c1cncc(-c2cc(F)ccc2F)c1	8	5
CC(C)Cn1cc(NC(=O)Nc2ccc(F)cc2F)cn1	-4	-4
Cc1nc(SCC(=O)NC(C)C)c2c(C)c(C)sc2n1	1	-1
Cc1cc(C(F)(F)F)nn1CC(=O)Nc1ncc(Cl)cc1Cl	-8	-12
CCOc1ccc(-n2c(SCc3cccc(C)c3)nc3c(c2=O)SCC3)cc1	11	42
Cc1oc(-c2cc3c(cc2Cl)OCO3)nc1CN(CCO)Cc1cccs1	-2&8	-3&6
CSc1ccc(CNC(=O)C2CCC(=O)N(CCN3CCOCC3)C2)cc1 (stereo unspecified)	8	1
CCOC(=O)CCNC(=O)N1CCC(CCOc2ccccc2)(C(=O)OCC)CC1	7	12
CCc1ccc(NC(=O)COc2coc(CN3CCc4ccccc43)cc2=O)cc1	4	1
Cc1ccc(Nc2nc(N3CCN(C)CC3)nc3[nH]ncc23)cc1	3	1
C/C=C(\C)C(=O)Nc1cccc(-c2cccc(-c3ccc(OC)cc3)n2)c1	-5	-6
CCCCN(Cc1ccc(OS(C)(=O)=O)cc1)C(=O)c1ccccc1C	-8	-1
COc1ccc(OCCSc2ccc(S(=O)(=O)N3CCCCCC3)cc2[N+](=O)[O-])cc1	-1	-3
CN(Cc1cn[nH]c1C(=O)O)CC1COc2ccccc2O1 (stereo unspecified)	19	8
CSc1ccc(Cn2c(C)c(C(=O)NCc3ccc(F)cc3)sc2=O)cc1	13	5
CCOC(=O)c1[nH]c(C)c(C(=O)CN(C(=O)Nc2c(C(C)C)cccc2C(C)C)C2CC2)c1C	-8	2
O=C(NCc1cccc(C(F)(F)F)c1)c1ccccc1N1CCC(NS(=O)(=O)c2ccc(Cl)cc2)CC1	1	9
Cc1cccc2c(=O)[nH]c(CN(Cc3ccccc3F)C3CC3)nc12	8	6
NC(=O)c1c(NC(=O)CC23CC4CC(CC(C4)C2)C3)sc2c1CCC2	4	9
COc1ccc(C(=O)c2ccc(O)cc2)c(O)c1O	-10	-14
COc1ccc(C2=N/C(=C\c3coc4ccccc4c3=O)C(=O)O2)cc1Br	19	3
CN1CCN(c2ccccc2NS(=O)(=O)c2cccs2)CC1	-9	-14
COc1coc(C(=O)Nc2cnc3n2CCCC3)cc1=O	1	0
CC1=C(C(=O)OCCOC(C)C)C2(O)C(=O)c3ccccc3C2(O)N1 (stereo unspecified)	2	-1
Additional entries:
SMILES	NPYLR7 agonist	NPYLR7 agonist max-min
OCc1ccc(-c2ccc(-c3ccc(CO)s3)o2)s1	7	-1
Cc1cc(Cl)ccc1OCC(=O)Nc1nc(CN2CC(C)OC(C)C2)cs1 (stereo unspecified)	-1	-3
Cc1cc(C)n(C)c(=O)c1C(=O)N1CCC(Cc2cccc(C(=O)O)c2)C1 (stereo unspecified)	8	2
Cc1nc2cc(C(=O)N(C)CC(=O)NC(C)(C)C)ccc2n1-c1ccccc1	3	-3
O=C(NCCN1CCOCC1)c1cc(NS(=O)(=O)c2ccc3ccccc3c2)ccc1N1CCC(Cc2ccccc2)CC1	-12	-4
CCC1C(C#N)C(=O)NC(N2CCOCC2)C1C (stereo unspecified)	4	53
Cn1c2c(c3ccccc31)C[C@H]1C[C@@H]2[C@@H](Oc2ccccn2)CN1C1CCOCC1	-2	8
COc1ccc(-c2cccc(-c3cccc(NC(=O)c4cc(OC)cc(OC)c4)c3)n2)cc1	-8	-13
C=CCCS(=O)(=O)Nc1cnn(C(C)C)c1	2	1
O=C(c1cccnc1-c1cnc2ccccc2c1)N1C[C@H]2CC[C@@H]1C2	1	-2
CCCn1cc(CN2CCN(Cc3cccc(Cl)c3)CC2)c(C)n1	-1	-1
CC(C)(C)NC[C@H](O)COc1nsnc1N1CCOCC1	1&1	-3&-3
O=C(CN1C(=O)c2ccccc2S1(=O)=O)N(C1CCCC1)C1CCS(=O)(=O)C1 (stereo unspecified)	3	9
CC(C)c1ccc(S(=O)(=O)NNC(=O)Nc2ccccc2)cc1	-3	0
COc1ccc(C(=O)O)cc1N1C(=O)C2C3C=CC(C3)C2C1=O (stereo unspecified)	-14	-15
Cc1cc(C)c(S(=O)(=O)NCCC(=O)O)cc1N(C)S(=O)(=O)c1ccc(F)cc1	-13	-17
COc1ccc(-c2cc(C(=O)NCCC(C)C)n3nc(C(C)(C)C)cc3n2)cc1	10	6
CCOc1ccc(S(=O)(=O)N2CCN(CC(O)COCc3ccc(OC)cc3)CC2)cc1 (stereo unspecified)	-1	45
CCCc1c(C(=O)N2CCc3c([nH]c4ccc(OC)cc34)C2c2ccc(-c3ccccc3C(F)(F)F)o2)cnn1-c1ccccc1 (stereo unspecified)	13	-4
